Sa RN4220 lethal – S. aureus RN4220 growth inhibition; OD600, 16 h; inhibition, % (test concentration not listed); hit rate 0.33% among 330,000; AID 1259311;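 active = z-score of -3 or lower and OD600 up to 0.18 on both plates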;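 note: plate controls were untreated cells for no effect and reference antibiotic for full effect; stock transfer was 100 nL into about 80 µL; one replicate is shown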
PrP UTR inh – inhibition of PrP 5' UTR reporter expression. cell-based PrP 5' UTR mRNA reporter, plate reader. inhibition, % (concentration not given with the values). hit rate 0.35% among 340,000. AID 488862;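 active = every replicate at 50% or more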;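 note: 0 = median of the neutral control wells; tested in H4 reporter cells; numbers are from one replicate; inactives centre near -14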
ugtP null kill – compounds lethal to S. aureus RN4220 ugtP deletion mutant; growth inhibition, % (concentration not given with the values); hit rate 0.54% among 330,000; OD600 growth, 16 h; some inactives read as strong as hits;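 active = z-score under -3 and OD600 up to 0.15 on both plates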;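 note: plate controls were untreated wells for no effect and antibiotic for full effect; wells of about 80 µL received 100 nL stock; the first replicate is given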
Mtb hypoxia inh – inhibitors of hypoxia-regulated fluorescent reporter in Mycobacterium tuberculosis; M. tuberculosis hypoxia-regulated fluorescent reporter, fluorescence; fluorescence inhibition, % (concentration not given with the values); hit rate 0.1% among 300,000; AID 1159583;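 active = 35 to 45% if threefold the growth effect, above 45% if 1.5-fold the growth effect; inactive = the rest, general growth blockers included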;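 note: wells of about 50 µL received 100 nL stock; 0% = vehicle wells and 100% = reference inhibitor wells; whole bacteria with a GFP reporter of the hypoxia response; strong numbers were not always called active; many hits fall short of the cut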
BJeLR viability – kills HRASV12-expressing BJeLR cells; BJeLR (HRASV12) viability, CellTiter-Glo ATP luminescence, 48 h; reference of the scale not given here; inhibition, % (no concentration beside the values); hit rate 0.17% among 300,000;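 active = replicate mean above 50%; inconclusive = above 50% but judged a plate artefact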;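 note: 50 nL library stock added to about 25 µL; numbers are from one replicate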
Bead autofluor – compound fluorescence in toxin protease inhibitor counterscreen | compound autofluorescence counterscreen, microsphere flow cytometry; active compounds read high | fluorescence intensity (test concentration not listed) | hit rate 3.1% among 360,000;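 active = at least 3 SD above the mean of all compounds, about 16000 in these data; inconclusive = too few beads counted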;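 note: 100 nL of 1 mM stock went into each well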
Mtb hypoxia inh growth – second read-out of Mtb hypoxia inh, no call of its own (marks repeat the call); growth inhibition, %; measured here: M. tuberculosis growth (absorbance);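 0% = vehicle and 100% = reference antibiotic; read after six days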
Active calls of the source: *; ? = inconclusive; . = not tested or not shown.

SMILES	Sa RN4220 lethal	PrP UTR inh	ugtP null kill	Mtb hypoxia inh	Mtb hypoxia inh growth	BJeLR viability	Bead autofluor
COc1ccc(S(=O)(=O)NCc2ccco2)cc1NC(=O)c1ccccc1	4.3	2.5	6.6	5.2	9.6	-6.4	3753
Cc1onc(-c2c(F)cccc2Cl)c1C(=O)OCn1nnc2ccccc2c1=O	5.7	-25.0	2.5	.	.	.	4882
CC1=Nc2cccc([N+](=O)[O-])c2NC(=O)C1	0.2	-24.0	5.6	9.4	9.4	.	4323
Cn1nc(C(=O)Nc2sc3c(c2C#N)CCCC3)ccc1=O	2.2	-31.2	5.4	1.9	-1.5	9.2	4539
CCCCCCNc1nc(Cl)nc(NC(C)(C)CO)n1	4.9	-15.1	-4.6	-5.3	5.5	-6.8	3694
CCOC(=O)c1cccc(NC(=O)CSc2nnc(-c3cccnc3)n2C)c1	0.3	-11.6	4.9	5.4	-2.4	-8.4	4381
OCc1cn(-c2ccccc2)nc1-c1ccc(Br)cc1	2.3	-23.4	-8.1	-3.9	7.5	-4.9	3540
Cc1ccccc1C(=O)Nc1ccnn1C1CCN(Cc2cnn(C)c2)CC1	-1.9	-11.3	0.4	1.5	3.4	-5.2	5632
CN(CC(=O)N1CCCCCC1)S(=O)(=O)c1ccc(Br)s1	1.1	.	-3.9	.	.	3.2	.
CCc1cc2c(-c3ccccc3)cc(=O)oc2cc1OCC(C)=O	2.2	-4.3	3.7	3.8	0.4	-19.0	3889
CC1CC(NC(=O)/C(C#N)=C/c2ccc[nH]2)CC(C)(C)C1 (stereo unspecified)	3.7	-13.6	-0.6	4.8	15.9	-2.4	5009
COCCNC(=O)c1onc(CSc2nc3ccccc3[nH]2)c1C(=O)NCCOC	-0.2	-13.4	2.0	3.7	5.8	9.1	3574
CC1CCN(C(=O)COC(=O)c2ccc(F)c(S(=O)(=O)N3CCOCC3)c2)CC1	-0.8	-12.9	-2.9	-2.6	2.9	-17.6	6253
Cc1cc(NC(=O)C2CCCCC2)ncc1NC(=O)c1ccccn1	-1.6	-19.4	-2.8	-7.3	-23.3	0.8	2320
COC(=O)c1cccc(NC(=O)CSCc2ccccc2)c1	1.1	-3.0	-1.3	-3.3	-3.0	-4.1	4035
COc1cccc(/C=N/Nc2ccc(S(=O)(=O)O)cc2)c1O	.	-20.9	.	.	.	4.8	11151
CSCC[C@H](NC(=O)Nc1ccc(C)cc1C)C(=O)O	-12.4	-0.2	-5.8	2.8	3.3	6.8	2954
Cc1ccn2c(C(=O)NN=Cc3ccc4c(c3)OCO4)c(C)nc2c1	5.2	.	5.1	13.9	9.1	.	.
COc1cccc(NC(=O)N2CCC(NC(=O)C(Cc3ccccc3F)NC(C)=O)CC2)c1 (stereo unspecified)	.	-23.4	.	.	.	0.4	3714
CCn1cc(CN2CCC(C(=O)Nc3cccc(-c4cccc(Cl)c4)c3)CC2)cn1	-7.6	-14.8	-15.2	15.4	7.9	5.7	6196
Cc1nc2sccn2c(=O)c1S(=O)(=O)NCCc1ccccc1	-6.7	-8.9	3.4	11.1	10.4	6.2	4529
O=C1OCCC1Sc1nnc(-c2ccc(F)cc2)n1Cc1ccccc1 (stereo unspecified)	2.3	-8.0	1.6	3.2	4.0	-0.3	2588
O=C(NCC1CCCO1)/C(=C/c1ccccc1F)NC(=O)c1ccccc1 (stereo unspecified)	7.0	-8.6	9.8	6.6	-4.2	-5.7	3920
Cc1ccc(OCC(=O)NCCCNC(=O)c2ccco2)cc1	8.3	-0.5	-3.2	-4.1	-2.8	-12.3	5967

Some of the entries so far, with values under each structure:
Results follow in this order: Sa RN4220 lethal | PrP UTR inh | ugtP null kill | Mtb hypoxia inh | Mtb hypoxia inh growth | BJeLR viability | Bead autofluor
CCn1cc(CN2CCC(C(=O)Nc3cccc(-c4cccc(Cl)c4)c3)CC2)cn1
    -7.6 | -14.8 | -15.2 | 15.4 | 7.9 | 5.7 | 6196
Cc1nc2sccn2c(=O)c1S(=O)(=O)NCCc1ccccc1
    -6.7 | -8.9 | 3.4 | 11.1 | 10.4 | 6.2 | 4529
O=C1OCCC1Sc1nnc(-c2ccc(F)cc2)n1Cc1ccccc1 (stereo unspecified)
    2.3 | -8.0 | 1.6 | 3.2 | 4.0 | -0.3 | 2588
O=C(NCC1CCCO1)/C(=C/c1ccccc1F)NC(=O)c1ccccc1 (stereo unspecified)
    7.0 | -8.6 | 9.8 | 6.6 | -4.2 | -5.7 | 3920

More entries follow.
SMILES	Sa RN4220 lethal	PrP UTR inh	ugtP null kill	Mtb hypoxia inh	Mtb hypoxia inh growth	BJeLR viability	Bead autofluor
CCOc1ccc(-n2ccnc2SCC(=O)Nc2nnc(CC)s2)cc1	5.9	-19.3	1.9	.	.	-6.4	3619
COc1ccc(C(=O)CSc2nccn2C)c(OC)c1	1.4	-44.7	1.1	2.6	-7.5	1.7	5590
O=C(c1cccc2c1-c1ccccc1C2)N1CCCCC1	2.9	-19.1	5.5	10.4	2.5	3.3	4083
N=c1c(C(=O)NC2CCCCC2)cc2c(=O)n3ccccc3nc2n1Cc1ccc(F)cc1	1.0	2.0	-2.5	9.7	12.3	2.1	5198
Cc1ccccc1CC(=O)Nc1sc(C(C)C)cc1C(=O)N1CCOCC1	2.9	-24.4	7.0	4.2	5.8	7.1	5814
O=C(NCCc1c[nH]c2ccccc12)c1ccc(Br)o1	7.4	-13.0	-3.0	-2.8	9.5	.	5537
CCOc1ccc(OCCC(=O)N(CCCOC)c2c(N)n(Cc3ccccc3)c(=O)[nH]c2=O)cc1	4.8	-22.3	3.0	-0.5	2.0	-12.6	?
CCOC(=O)CNC(=O)CSc1nnc(-c2ccncc2)n1-c1ccc(Cl)cc1	2.4	-18.6	0.8	10.9	8.3	3.1	9986
CCN(CC)S(=O)(=O)c1ccc(Oc2ccccc2)c(N)c1	5.7	-4.8	4.3	8.7	-6.8	-9.4	3344
COC(=O)c1cc(Oc2ccc(S(=O)(=O)N3CCOCC3)cc2[N+](=O)[O-])cc(C(=O)OC)c1	1.8	7.6	0.3	1.9	8.4	.	4274
O=C(NCC1CCCO1)c1ccc(C(=O)NCC2CCCO2)cc1 (stereo unspecified)	0.9	-2.9	-2.3	.	.	0.4	.
O=C1C2C(C(=O)N1/N=C/c1ccco1)C1C=CC2C12CC2 (stereo unspecified)	.	-20.4	.	.	.	-2.7	10781
Fc1cccc(F)c1C=NNc1ccccn1	10.0	.	5.2	1.0	0.2	.	.
O=C(COc1ccc(Br)cc1)N1CCOCC1	1.3	-18.2	-2.9	-1.9	3.4	0.5	4639
O=C(NCCc1ccc(Cl)cc1)C1CCN(S(=O)(=O)N2CCCCC2)CC1	0.8	-26.5	2.8	4.2	7.3	-5.1	10988
C/C(=N/NC(=O)C(C)n1nc(C)c([N+](=O)[O-])c1C)c1ccc(OCC(N)=O)cc1 (stereo unspecified)	.	-21.7	.	.	.	-3.1	5905
O=C(N/C(=C/c1ccccc1Cl)C(=O)N1CCOCC1)c1ccccc1	1.5	-4.2	10.0	3.8	2.9	.	8168
C=CCn1c(SCC(=O)N(C)C2CCCCC2)nnc1C1CC1	5.8	-13.1	2.1	2.6	2.9	.	5621
C=C(C1=CCN(S(=O)C(C)(C)C)[C@@H]1CCO)c1ccccc1 (stereo partly specified)	0.8	58.8*	4.9	-7.3	-5.9	.	3559
O=C(CC1CC=CCCCCC(=O)OCC2CCCN2C1=O)NC(CO)Cc1ccccc1 (stereo unspecified)	6.7	.	-7.2	8.4	4.9	.	.
Cn1c(=N)n(CC(=O)c2ccc(Br)s2)c2ccccc21	0.1	-57.7	0.2	.	.	2.3	3250
Cc1ccc(S(=O)(=O)N2CCOCC2)cc1NC(=O)CN1C(=O)NC2(CCCC2)C1=O	-0.1	-24.5	0.1	9.8	4.7	.	3963
COc1ccc(NC2=C(C(C)=O)C(c3ccccc3)C(C(C)=O)C(C)(O)C2)cc1 (stereo unspecified)	0.6	-19.4	13.6	4.7	3.5	-1.7	5910
COc1cc2c(cc1OC)C1=CC(=O)C(=O)N1C(C)(C)C2	8.3	2.7	7.7	-4.9	-1.8	-3.9	3365
Cc1cccc(C(=O)NC2CCN(CC(=O)NCc3ccccc3F)CC2)c1	0.1	-6.2	2.4	-7.0	8.6	-5.3	5776
Cc1ccc2c(c1)C1CN(C)CCC1N2C(=O)Cc1cccs1 (stereo unspecified)	2.5	-10.8	2.1	13.5	12.2	-5.5	4361
O=C(CN(C(=O)CNC(=O)c1ccco1)c1ccc2c(c1)OCCO2)NC1CCCC1	-2.3	-29.7	3.6	-14.5	8.6	3.1	3619
Cc1ccn2cc(-c3cccc(NC(=O)c4ccccc4)c3)nc2c1	12.8	-33.0	-1.8	-6.8	-7.2	-1.8	2656
O=C1OC(c2ccccc2)C2(CCCC2)C(=O)C12CCCC2 (stereo unspecified)	6.4	6.1	8.0	9.1	5.7	-1.6	.
N#Cc1c(N2CCOCC2)nsc1-c1ccc(C(F)(F)F)cc1	7.0	-76.4	2.6	8.7	4.5	-4.5	.
C=CCNc1nc(Cl)nc(NCc2ccco2)n1	-2.5	-7.2	4.7	3.0	9.0	17.8	4127
CCOc1ccc(-n2c(=O)c3sccc3n(CC(=O)Nc3cccc(OC)c3)c2=O)cc1	7.1	-21.0	19.1	-2.9	6.4	9.8	4568
C=CCn1c(SCC(=O)Nc2ccccc2C)nc(O)cc1=O	-0.8	13.4	10.3	8.6	2.0	1.4	4883
CC(NC(=S)Nc1c(Cl)cccc1OC(F)F)C(C)(C)C (stereo unspecified)	7.0	-10.7	2.9	-7.5	7.5	3.0	2167
CCn1c(SCC(=O)N/N=C/c2ccncc2)nc2ccccc21	.	4.7	.	.	.	-6.9	4775
CCn1c2ccccc2c2cc(N=C3SC(CC(=O)Nc4ccccc4OC)C(=O)N3CCOC)ccc21 (stereo unspecified)	2.1	-0.9	-5.3	8.8	0.1	-1.0	2737
CCOc1ccc(CNC(=O)C2CCN(S(=O)(=O)N3CCCC3)CC2)cc1OC	3.6	-20.0	9.7	14.3	0.6	8.9	6601
CCc1ccc(CNc2ccc(O)cc2)cc1	-8.8	-5.2	-18.9	-4.3	6.3	2.5	4371
Cc1ccc(C)c(N2CCN(S(=O)(=O)c3ccc4[nH]c(=O)ccc4c3)CC2)c1	7.6	-10.9	5.6	-1.5	-4.2	0.1	6475
CCC(=O)NCCCNc1nc2c(C)cccc2cc1C#N	5.0	-30.1	3.2	1.1	12.5	-1.7	4352
COc1cccc(C(=O)OCCNC(=O)c2cccnc2)c1	3.5	-26.1	-2.8	13.3	0.6	-0.6	4042
O=C(Nc1sc2c(c1C(=O)NCc1cccnc1)CCCC2)c1ccco1	-0.8	-7.5	-16.3	-14.2	-5.9	0.5	22004*
Cc1nonc1CC(=O)N1CCc2c([nH]c3ccccc23)C1c1ccccc1F (stereo unspecified)	-0.6	-24.7	-3.7	3.6	0.2	-1.8	2588
COc1ccccc1C(CC(N)=O)c1ccco1 (stereo unspecified)	6.0	-16.6	0.2	.	.	-3.0	3221
O=C(OCC(=O)N1CCCCC1)c1cccs1	-2.8	-89.4	-4.3	-2.1	-10.9	.	4132
COc1ccc(/C=C/C(=O)NCc2ccc3c(c2)OCO3)cc1OC	1.6	-25.9	0.1	-2.1	14.9	3.7	4220
O=c1c2[nH]c3cccc(Cl)c3c2ncn1Cc1ccco1	2.4	-29.2	2.7	13.0	-13.1	-6.5	4585
Nc1nonc1C(=O)NCCNCc1cc(Br)ccc1OCc1ccc(F)cc1	1.9	-35.0	3.2	9.0	4.6	8.1	19634*
CCNc1nc(Oc2ccc(C(=O)OC)cc2)nc(SC)n1	7.0	-8.0	-0.3	7.4	5.3	10.8	22097*
Cc1ccc(C)c(NC(=S)Nc2ncccc2C)c1	2.0	-46.2	9.3	14.9	-4.2	3.0	2075
CCOC(=O)c1c(C)[nH]c(C)c1C(=O)COC(=O)c1cc2ccccc2cc1O	-4.1	-16.2	-8.5	-7.7	1.4	-2.6	2634
Cc1ccc(SCCC(=O)Nc2cccc(N(C)S(C)(=O)=O)c2)cc1	2.5	-6.4	7.6	11.1	3.7	3.8	.

Pulled by compound from the entries so far (3):
SMILES	Sa RN4220 lethal	PrP UTR inh	ugtP null kill	Mtb hypoxia inh	Mtb hypoxia inh growth	BJeLR viability	Bead autofluor
CCOc1ccc(-n2c(=O)c3sccc3n(CC(=O)Nc3cccc(OC)c3)c2=O)cc1	7.1	-21.0	19.1	-2.9	6.4	9.8	4568
C=CCn1c(SCC(=O)Nc2ccccc2C)nc(O)cc1=O	-0.8	13.4	10.3	8.6	2.0	1.4	4883
O=C(CN(C(=O)CNC(=O)c1ccco1)c1ccc2c(c1)OCCO2)NC1CCCC1	-2.3	-29.7	3.6	-14.5	8.6	3.1	3619

High-throughput results as filed in PubChem BioAssay.
